Source: PubChem
VACV Venus inh: qHTS for Stage-Specific Inhibitors of Vaccinia Orthopoxvirus: Venus Reporter Primary qHTS | Vaccinia virus Venus reporter expression, fluorescence | Potency, µM (top dose mostly 36.5 µM), inactives show at the highest dose activity change, negative = inhibition, actives largely listed as inhibitors | 0.46% of 330,000 active; active means well fitted inhibition curve with a large enough effect; inconclusive means small, poorly fitted or top-dose-only effect; inactive means no such curve, though single readings can be large or run the other way; tested in A549 cells; note: nearly all actives have a fitted effect of over 30% in size; inactives centre near -10
VACV mCherry inh: qHTS for Stage-Specific Inhibitors of Vaccinia Orthopoxvirus: mCherry Reporter Primary qHTS | Vaccinia virus mCherry reporter infection, fluorescence; about a quarter of the inactives have no number | Potency, µM (doses to about 36.5 µM), inactives show at the highest dose activity change, negative = inhibition, usual class: inhibitors | 0.63% of 310,000 active | AID 720579, 2013; active = well fitted inhibition curve with a large enough effect; inconclusive = small, poorly fitted or top-dose-only effect; inactive = no such curve, though single readings can be large or run the other way; tested in A549 cells; note: nearly all actives have a fitted effect of over 35% in size; inactives centre near -10
Numbers without * were called inactive; i = inactive; ? = inconclusive; . = no result given; & = joins results of further samples; [ ] = dose if it differs, or a comment. % is set by controls: 0 for no effect and ±100 for the full control effect; potency is the fitted concentration of half-maximal effect.

SMILES | VACV Venus inh | VACV mCherry inh
O=C(CN1CCN(c2ccc(O)cc2)CC1)Nc1cc(S(=O)(=O)N2CCOCC2)ccc1Cl | -13.1% | -18.9%
Cc1cccc(-c2n[nH]c(=S)n2-c2ccccc2)c1[N+](=O)[O-] | -10.1% | i
COc1ccc(CNc2nc(-c3ccc(OC)cc3)cc(C(F)(F)F)n2)cc1 | -15.4% | -5.7%
COc1ccc(C(=O)c2cn(CC(=O)Nc3ccc4c(c3)OCCO4)c3ccc(OC)cc3c2=O)cc1 | -0.8% | 3.9%
Cc1c(/C=N\NC(=O)C2(C)CC2(Cl)Cl)cnn1C (centres undefined) | ? | -6.4%
COc1cc(/C=N/NC(N)=O)ccc1OC(=O)c1cccs1 | -13.9% | -2.8%
Fc1cccc(NCc2cccn2-c2nnc(N3CCOCC3)s2)c1 | 0.7% | 1.6%
CCOc1ccc(NS(=O)(=O)c2ccc(Cl)c(N=Nc3c(O)[nH]c(=S)[nH]c3=O)c2)cc1Br | -1.6% | -3.7%
Cc1nc2ccccc2c(=O)n1-c1ccc(Cl)cc1Cl | -17.2% | -12.5%
CCCCN=C1NN=C(c2cc3ccccc3o2)CS1 | -5.3% | -11.9%
CCc1ccc(-n2c(=O)c3c4c(sc3n(CC(=O)N3CCCCC3CC)c2=O)CCC4)cc1 (centres undefined) | -7.4% | -12.4%
CCN1CCN(S(=O)(=O)c2ccc(Cl)c(C(=O)NC3CCCCC3)c2)CC1 | -5.9% | -9.9%
CC(C)CCN1CCC(CN2C(=S)NC[C@@H]2Cc2ccccc2)CC1 | -8.4% | -27.3%
O=C(Nc1ccccc1C(F)(F)F)c1cc(-c2ccco2)on1 | -4.6% | -16.6%
CCN1C(=O)c2ccccc2Sc2ccc(NC(C)=O)cc21 | -4.5% | -8.9%
COc1cc(OC)cc(-c2c(C#Cc3ccsc3)c3cc(-c4ccc(OC)nc4)ccc3n2C)c1 | -16.8% | -1.2%
Cc1ccc(-c2nc(C#N)c(NCc3ccco3)o2)cc1 | 1.2% | .
COc1ccc(-c2nc(Cn3c(SCc4cccc(F)c4)nc4ccncc43)c(C)o2)cc1OC | -6.6% | -0.1%
Cc1ccccc1NC(=O)CN1C(=O)N/C(=C\c2ccccc2OCc2ccc(C(=O)O)cc2)C1=O | -12.8% | i
N#CCCN(C(=S)Nc1ccc(Cl)c(Cl)c1)C1CCCCC1 | -22.0% | -30.4%
CCC(c1nnnn1Cc1ccc(F)cc1)N1CCN(C2CCCCC2)CC1 (centres undefined) | -26.8% | .
CCC(C)C(NC(=O)c1ccccc1)C(=O)N1CCN(C(=O)c2ccccc2)CC1 (centres undefined) | -6.5% | -4.8%
CCN(CC)c1nc(C)c(C(=S)Nc2cc([N+](=O)[O-])ccc2Cl)s1 | -10.3% | -15.7%
CCc1ccc(C(=O)C[N+]2(C)CCOCC2)cc1 | -6.1% | -13.8%
O=C(NCCN1CCOCC1)/C(=C\c1ccc(Br)cc1)NC(=O)c1cccs1 | -3.3% | -7.2%
CCN(CC)c1ccc(/C=C/c2sc3ccccc3[n+]2CCCCI)cc1 | . | i
S=C(NCCc1c[nH]c2ccccc12)NC1CCCC1 | -7.6% | -18.0%
COc1ccc(Cl)cc1N(C(=O)c1ccco1)C(C(=O)NC1CCCC1)c1ccco1 (centres undefined) | -0.8% | -3.6%
c1cn2cc(CSC3CCCCC3)nc2s1 | -4.1% | -21.1%[1.46 µM]
CS(=O)(=O)c1ccccc1C(=O)Nc1cc(Cl)ccc1-n1cncn1 | -16.1% | -10.1%
Cc1ccc([N+](=O)[O-])cc1S(=O)(=O)N1CCCN(C)CC1 | -9.4% | -7.7%
Cc1n[nH]c(=S)n1Cc1ccccc1 | -6.0% | -20.6%
O=C(CN1C(=O)c2ccccc2C1=O)Nc1cccc(Cl)c1 | -4.9% | -0.9%
Cc1ccc(S(=O)(=O)N2CCN(C(=O)COC(=O)CSc3ccc(C)c(C)c3)CC2)c(C)c1 | -8.5% | i
CC(C)c1ccc(C2Sc3ccccc3NC3=C2C(=O)c2ccccc23)cc1 (centres undefined) | -18.7% | -13.8%
S=C1NC[C@H](Cc2ccccc2)N1CCc1cccc2ccccc12 | -26.8% | ?
CCc1ccc(NC(=O)CSC2=Nc3ccccc3C3=NC(CCC(=O)NCc4ccccc4OC)C(=O)N23)cc1 (centres undefined) | -17.4% | -25.3%
O=[N+]([O-])c1ccc(S(=O)(=O)Nc2nnc(C3CCCCC3)s2)cc1 | 5.6% | i
O=C1c2ccccc2C(=O)C1c1ccc2ccccc2n1 | -8.8%&-7.0% | 15.6%&39.4%
Cc1nc(NS(=O)(=O)c2ccccc2)sc1C(=O)NNS(=O)(=O)c1ccccc1 | 19.1% | -11.7%
CCN(c1ccccc1)S(=O)(=O)c1ccc(Cl)c(NC(=O)COC(=O)c2cccc(OC)c2O)c1 | -6.6% | -17.8%
Oc1ccc(-[n+]2c(-c3ccccc3)cc(-c3ccccc3)cc2-c2ccccc2)cc1 | ? | -9.2%
S=C(NCc1ccc2c(c1)OCO2)NCc1ccc2c(c1)OCO2 | -6.0% | -2.6%
O=C(O)c1ccc(C(=O)c2cc([N+](=O)[O-])cc([N+](=O)[O-])c2)cc1 | -4.0% | -9.4%
O=C(CCCCCn1c(=O)[nH]c2ccsc2c1=O)N1CCCCC1 | -10.7% | -10.7%
Cc1ccccc1N=C(c1ccccc1)C1C(=O)c2ccccc2C1=O | -23.2% | 3.1%
CC(C)c1cc(C(C)C)c(S(=O)(=O)NC(c2ccccn2)C23CC2C3)c(C(C)C)c1 (centres undefined) | -4.1% | 4.1%
COc1ccc(OC)cc1 | 2.4%&-14.7% | -8.3%
CS(=O)(=O)N1CCC(Oc2ccccc2C(=O)NC(C2CC2)C2CC2)CC1 | -16.7% | -14.7%
O=C(Cc1ccc(NC(=O)C2CCN(C(=O)C3CCCCC3)CC2)cc1)Nc1cccc(C(=O)N2CCCCC2)c1 | 1.6% | 9.9%
O=C(Nc1cc(S(=O)(=O)N2CCOCC2)ccc1N1CCOCC1)c1cc2c(s1)CCC2 | 0.9% | -17.8%
CCCn1nnnc1NCc1ccccc1F | -12.6% | i
O=C(CN1CCCCCC1)N/N=C/c1ccc(Cl)c(Cl)c1 | -13.6% | -9.2%
Cc1ccc(NC(=O)N2CCN3CCCCC3C2)cc1F (centres undefined) | -10.4% | 6.1%
CCOC(=O)C1=NNC(=O)C1 | -11.8% | -13.4%
CCn1c(O)c(/C=C2\C=NN=C2c2ccc(C)cc2)sc1=S | 5.4% | i
COc1cc(S(=O)(=O)Nc2cccc(C)c2)ccc1NC(=O)c1ccncc1 | ? | -4.5%
O=C(COC(=O)/C=C/c1cccc([N+](=O)[O-])c1)Nc1cccnc1Cl | -15.6% | -19.8%
COc1ccccc1NC(=O)c1oc2ccccc2c1C | -10.8% | i
CCn1cc(C(=O)N2CCCC(CO)(Cc3ccccc3C)C2)cn1 (centres undefined) | -1.2% | -6.6%

Next section; the last 4 above are carried over.
SMILES | VACV Venus inh | VACV mCherry inh
COc1cc(S(=O)(=O)Nc2cccc(C)c2)ccc1NC(=O)c1ccncc1 | ? | -4.5%
O=C(COC(=O)/C=C/c1cccc([N+](=O)[O-])c1)Nc1cccnc1Cl | -15.6% | -19.8%
COc1ccccc1NC(=O)c1oc2ccccc2c1C | -10.8% | i
CCn1cc(C(=O)N2CCCC(CO)(Cc3ccccc3C)C2)cn1 (centres undefined) | -1.2% | -6.6%
O=S(=O)(c1ccc(Cl)nc1)N1CCN(Cc2ccc3c(c2)OCO3)CC1 | -20.1% | ?
CCOC(=O)c1sc(N)c(C#N)c1CSc1nnc(C2CC2)n1N | 1.0% | -14.3%
CN(C)CCCOc1ccc(-c2ccc3nncn3c2)cn1 | 11.7% | 27.4%
Cc1cc(=O)oc2cc(OCC(=O)N3CCN(c4ccc(F)cc4)CC3)c(Cl)cc12 | -5.2% | -12.4%
CCOC(=O)N1CCc2c(sc3c2c(=O)n(Cc2ccccc2)c(=O)n3Cc2cccc(Cl)c2)C1 | -19.2% | -23.6%
O=[N+]([O-])c1ccccc1/C=N/N1CCN(Cc2ccccc2)CC1 | -15.3% | -5.9%
CCOC(=O)Cn1c(-c2ccccn2)nc2ccccc21 | -9.1% | .
N#CC(=Cc1ccc(-c2ccccc2)cc1)C(=O)c1ccccc1 | 6.4% | 35.3%[activator]
COc1ccc2cc(C(N)=O)c(=Nc3ccc(C)cc3)oc2c1 | -6.0% | -14.4%
COc1ccc(-c2csc(NC(=O)c3cc(C)on3)c2C#N)cc1OC | -7.1% | i
O=C(Nc1ccccc1)NC1(C(=O)N2CCN(C(=O)c3ccco3)CC2)CCCCC1 | -25.3% | ?
O=C(c1cc(-c2ccccc2)on1)N1CCN(c2ccccc2)CC1 | -9.6% | -10.7%
O=C(O)c1ccc(NC(=O)c2cc(S(=O)(=O)N3CCCCC3)c(Cl)cc2Cl)cc1 | -0.2% | -2.8%
CC(C)C(=O)Nc1cc(S(=O)(=O)N2CCOCC2)ccc1N1CCCCC1 | 1.8% | -14.3%
OCc1ccccc1N=Cc1cccnc1 | -18.6% | i

Shown as comma-separated lines: 3 of the compounds above.
mol,VACV Venus inh,VACV mCherry inh
O=C(O)c1ccc(NC(=O)c2cc(S(=O)(=O)N3CCCCC3)c(Cl)cc2Cl)cc1,-0.2%,-2.8%
CC(C)C(=O)Nc1cc(S(=O)(=O)N2CCOCC2)ccc1N1CCCCC1,1.8%,-14.3%
OCc1ccccc1N=Cc1cccnc1,-18.6%,i

Further compounds
SMILES | VACV Venus inh | VACV mCherry inh
COc1ccc(C2CC(=O)c3c(O)cc(O)cc3O2)c(CC=C(C)C)c1OC (centres undefined) | -9.5% | -10.5%
Cc1cc(C)cc(NC(=O)Cn2cc(C(=O)c3ccncc3)c(=O)c3cc(C)c(C)cc32)c1 | -12.9% | -9.3%
CN(C(=O)COC(=O)c1ccccc1OCC(=O)Nc1ccc(Br)cc1)c1ccccc1 | -13.8% | -0.5%
Cc1ccc(S(=O)(=O)C2(C(=O)Nc3nccs3)CC2)cc1 | -15.8% | -20.7%
COc1cccc(Nc2nc(-c3ccccc3)c3cc(C)ccc3n2)c1 | -7.3% | -10.9%
CCOC(=O)C1CCCN(S(=O)(=O)c2cc(Br)cc3c2N(C(C)=O)CC3)C1 (centres undefined) | -11.3%&1.9% | -19.1%&-6.9%
Oc1ccc(N2CCN(c3nnnn3-c3ccccc3)CC2)cc1 | -16.0% | -4.6%
Cc1cc(C(=O)Nc2ccc(Cl)cc2)on1 | -20.9% | -25.9%
Cc1cccc(-c2c3c(=O)n(C)c(=O)n(C)c3cn2CC2CCCO2)c1 (centres undefined) | -16.0% | .
O=C(O)CNS(=O)(=O)c1ccc2[nH]c(=O)c(=O)[nH]c2c1 | -5.8% | i
CNC(=O)C1CC(=O)N(c2ccc(OCC(=O)NCc3ccccc3)cc2)C1 (centres undefined) | -3.5% | i
O=C(OCC1CC(c2ccccn2)=NO1)c1ccc(Br)cc1 (centres undefined) | 5.6% | -16.1%
N#C/C(=N\Nc1ccc([N+](=O)[O-])cc1)C(=N)N1CCOCC1 | -22.2% | i
COc1ccc(CNc2nc(-c3ccco3)nn2C(=O)CC(C)C)cc1 | -11.7%[7.34 µM] | -16.2%[7.34 µM]
O=C(CNC(=O)c1ccccc1F)NCCCN1CCCC1=O | -0.4% | -17.5%
Cc1c(C(=O)Nc2ccccc2)c2ccc(C(F)(F)F)cc2n1O | -3.9%[7.34 µM] | -6.8%[7.34 µM]
Cc1onc(-c2c(F)cccc2Cl)c1C(=O)Nc1sc2c(c1C#N)CCC(C(C)(C)C)C2 (centres undefined) | -20.9% | -21.3%
O=C(Nc1ccccn1)NC1CCCCC1 | -18.5% | -21.6%
O=C(COc1ccccc1Cl)NCCCNC(=O)c1cccnc1 | 4.3% | -3.4%
CC(c1ccccc1C(O)(c1ccccc1)c1ccccc1)N(C)C (centres undefined) | -9.1% | i
CCOc1ccc(-c2noc(COC)n2)cc1OC | -2.4% | .
COc1ccc([C@H]2CC(=O)C[C@@H](CCn3cc(-c4ccc(F)cc4)nn3)O2)cc1 | -2.3% | -3.7%
CC(C)CC1=NC(C(F)(F)F)(C(F)(F)F)c2c(n(CC(C)C)c(=O)[nH]c2=O)N1 | -18.2% | -25.6%
N#Cc1ccc(N/N=C/c2ccccc2)c([N+](=O)[O-])c1 | -10.6% | -4.9%
CN(C)S(=O)(=O)c1cccc(NC(=O)c2cc(-c3cccs3)nn2-c2ccccc2)c1 | -10.5% | i
COc1ccc(NC(=O)c2ccc(CNc3c(NC4CCCCC4)c(=O)c3=O)cc2)cc1OC | 6.7%&-9.4% | -10.0%&-11.4%
Cn1cnnc1SCC(=O)Nc1ccccc1C(=O)NC1CCCC1 | -11.8% | -13.0%
CN(C)c1cc[n+](CC(=O)Nc2ccc(Oc3ccccc3)cc2)cc1 | -26.0% | -9.0%
Cc1ccc(S(=O)(=O)N(CC(=O)N2CCC(C(N)=O)CC2)Cc2ccc(F)cc2)cc1 | -15.4% | -27.3%
O=C(CCC1N=C2c3ccccc3N=C(SCC(=O)Nc3ccccc3F)N2C1=O)NCc1cccs1 (centres undefined) | 6.1% | 10.5%
COc1ccc2c(c1)-c1ccccc1S(=O)(=O)N(C)C2 | -9.2% | i
O=C(Nc1nnc(C2=COCCO2)o1)c1cccc([N+](=O)[O-])c1 | -10.2% | -16.7%
